Mtb H37Rv = Confirmatory growth inhibition assay against Mycobacterium tuberculosis H37Rv, potency (AID 1949). inhibition, % at 10 µg/mL, or IC50 in µg/mL where a hit was titrated. most inactive calls were filed without a number and no value below 0 was filed. 100,000 tested, 1.6% active;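 active = confirmed in a dose series; inconclusive = about 50% or more but not retested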;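 note: bacteria grown 7 days with compound before Alamar blue readout; 0% = untreated bacteria and 100% = reference antibiotic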
Numbers without * were called inactive; i = inactive; u = inconclusive. A portion of the library (hit frequency here may not be typical).

SMILES | Mtb H37Rv
CCOc1ccccc1NC(=S)Nc1ccc(OC)c(OC)c1 | i
O=C(O)C(Oc1ccc2c(c1)oc(=O)c1ccccc12)c1ccccc1 (stereo not given) | i
O=C(Nc1ccccc1F)C1CCN(C(=O)c2cccs2)CC1 | 1%
Cc1c(Br)ccc(NC(=O)CSc2nnc(CSCc3ccccc3)n2C)c1C | i
Cc1cccc(OCC(=O)Nc2cccc(C(=O)c3ccccc3)c2)c1 | u
Cc1ccc(NC(=O)c2ccccc2F)cc1F | i
O=C(CN1C(=O)c2ccccc2S1(=O)=O)N1CCc2ccccc21 | i
CC(C)c1ccc(NC(=O)CN(Cc2ccccc2)S(=O)(=O)c2ccc(F)cc2)cc1 | 0%

(continued)
SMILES | Mtb H37Rv
COc1ccc(S(=O)(=O)N2CCC(c3ccccc3)CC2)c2ccccc12 | 2%
Cc1cc(Cl)c(S(=O)(=O)NCc2ccccc2)cc1OCC(N)=O | 2%
COC(=O)c1sccc1NC(=O)c1cc(Cl)ccc1Cl | 0%
CC(=O)Nc1ccc(S(=O)(=O)N2CCN(CC(O)COc3ccc4ccccc4c3)CC2)cc1 (stereo not given) | 34%
NS(=O)(=O)c1ccc(N=C2NC(=O)C(CC(=O)Nc3ccccc3)S2)cc1 (stereo not given) | 0%
Cc1ccc2nc(/N=C(\N)NC(=O)N3c4ccccc4Sc4ccccc43)nc(C)c2c1 | 1%
Cc1nc(NS(=O)(=O)c2ccccc2)sc1C(=O)Nc1ccccc1 | i
CCOc1ccc(OCCN2CCNCC2)cc1 | i

Part of the list above in another layout.
CC(=O)Nc1ccc(S(=O)(=O)N2CCN(CC(O)COc3ccc4ccccc4c3)CC2)cc1 (stereo not given)
  Mtb H37Rv: 34%
NS(=O)(=O)c1ccc(N=C2NC(=O)C(CC(=O)Nc3ccccc3)S2)cc1 (stereo not given)
  Mtb H37Rv: 0%
Cc1cccc(OCC(=O)Nc2cccc(C(=O)c3ccccc3)c2)c1
  Mtb H37Rv: u
O=C(CN1C(=O)c2ccccc2S1(=O)=O)N1CCc2ccccc21
  Mtb H37Rv: i

(more compounds)
SMILES | Mtb H37Rv
C=CCN(c1ccc(C(=O)NCCOC)cc1)S(C)(=O)=O | i
S=C(Nc1ccccn1)NC1CCCC1 | 2%
O=C(COc1ccc(Cl)cc1)Oc1ccc(Cl)cc1 | i
CCN(CC)C(=O)C1=C(C)NC(=S)NC1c1c(F)cccc1Cl (stereo not given) | i
C=CCc1cccc(CNc2nc3ccccc3n2CCC)c1O | 7%
C=CCNC(=O)CCCOc1ccccc1OC | i
O=C(O)C1C2C=CC(O2)C1C(=O)NCCc1cccc(Cl)c1 (stereo not given) | i
Cc1cccc(CN(CC(=O)Nc2ccccc2F)S(=O)(=O)c2ccc(Cl)cc2)c1 | i

More results follow.
SMILES | Mtb H37Rv
COc1ccc(C(=O)NC(=S)Nc2cc(Cl)ccc2Cl)cc1 | 3%
O=S(=O)(c1ccc(F)c(Cl)c1)N1CCOCC1 | i
CCOc1ccc(C(N)CC(=O)O)c2ccccc12 (stereo not given) | i
CNCCCOc1ccc(CCC(C)=O)cc1 | i
Cc1cc(NC(=O)Cn2nc(C(F)(F)F)c3c2CCC3)no1 | i
COc1cccc(C=O)c1OC(=O)c1cccc(Cl)c1 | i
Cc1cc(OCc2cccc(C(F)(F)F)c2)c2c(C)cc(=O)oc2c1 | i
Cc1ccc(OCC(=O)c2ccc(F)cc2)cc1C | 2.5µg/mL*

Following part:
SMILES | Mtb H37Rv
COCCNCCCCOc1ccc(Cl)cc1Br | i
COc1ccc(N(CC(=O)N2CCN(c3cccc(Cl)c3)CC2)S(=O)(=O)c2ccccc2)c(OC)c1 | i
O=C(COc1cccc2ccccc12)Nc1ccc(Cl)cc1C(=O)O | i
COc1ccc(OC)c(NC(=O)c2c(F)c(F)c(OC)c(F)c2F)c1 | i
Cc1ccc(NC(=O)CSC2CC(=O)N(c3ccc(I)cc3)C2=O)cc1 (stereo not given) | i
O=C(CC(c1ccccc1)c1cc(Cl)ccc1O)N1CCCC1 (stereo not given) | i
O=C(COc1ccccc1Cl)NC(=S)Nc1ccc([N+](=O)[O-])cc1 | i
NS(=O)(=O)c1ccc(NC(=S)NCc2ccco2)cc1 | i

Laid out differently: entries from further up
Cc1cccc(CN(CC(=O)Nc2ccccc2F)S(=O)(=O)c2ccc(Cl)cc2)c1
  Mtb H37Rv: i
COC(=O)c1sccc1NC(=O)c1cc(Cl)ccc1Cl
  Mtb H37Rv: 0%
Cc1nc(NS(=O)(=O)c2ccccc2)sc1C(=O)Nc1ccccc1
  Mtb H37Rv: i
NS(=O)(=O)c1ccc(NC(=S)NCc2ccco2)cc1
  Mtb H37Rv: i

More results
SMILES | Mtb H37Rv
COc1ccc(NC(=S)N2CCCC2)cc1OC | i
COc1ccc(C(=O)N2CCN(S(=O)(=O)c3ccc(C)cc3)CC2)cc1OC | i
CC(NC(N)=O)c1ccc(-c2ccccc2)cc1 (stereo not given) | 0%
Cc1ccnc(NCc2cc(Br)ccc2O)c1 | 3%
Cc1ccc(OCCNC2CCCC(C)C2C)c(C)c1 (stereo not given) | i
CC1CCc2c(sc3nc(SCC(=O)NCC4CCCO4)n(-c4ccccc4)c(=O)c23)C1 (stereo not given) | i
COCC(=O)Nc1nc(-c2ccc(Cl)cc2Cl)cs1 | i
COc1cccc(C(=O)NC2CCCCC2)c1OC | i

More compounds follow.
SMILES | Mtb H37Rv
CCCCc1nc(SCC(=O)Nc2ccccc2Cl)n[nH]1 | i
CC(C)(C)NS(=O)(=O)c1ccc(NC(=O)COc2ccccc2Cl)cc1 | i
COc1ccc(NC(=O)c2cc3ccccc3cc2OC)c(OC)c1 | 0%
O=S1(=O)N=C(N2CCN(c3ccccc3)CC2)c2ccccc21 | i
CCOc1ccccc1NC(=O)Cn1c(=O)oc2ccccc21 | i
COc1ccc(S(=O)(=O)Nc2ccc(S(=O)(=O)Nc3nc(C)cc(C)n3)cc2)cc1OC | i
CC(=O)Oc1ccccc1C(=O)Nc1ccc(N(C)C(C)=O)cc1 | i
C=CCn1c(=S)[nH]c2sc3c(c2c1=O)CCCC3 | i

More results.
| Compound | Mtb H37Rv |
| --- | --- |
| C/C=C/c1ccc(OCCCNCC(C)O)c(OC)c1 (stereo not given) | i |
| CC(NC(=O)CSc1nnc(Cc2ccccc2)n1C)c1ccccc1 (stereo not given) | i |
| CCOc1cc(C(=O)Nc2ccc(S(=O)(=O)N3CCC(C)CC3)cc2)cc(OCC)c1OCC | i |
| CCC(C(=O)Nc1ccc(OC)c(Cl)c1)c1ccccc1 (stereo not given) | 6% |
| CC(=O)NCC1=C(NC(C)=O)C2CC1C(C)(C)C2C (stereo not given) | i |
| Cc1ccc(OCCCN2CCOCC2)c(Cl)c1 | 1% |
| COc1ccc(OC)c(S(=O)(=O)N2CCC(C(=O)NCCC3=CCCCC3)CC2)c1 | i |
| COc1ccc(C2CC(c3nc4ccccc4[nH]3)=NN2C(=O)CCN2CCCCC2)cc1 (stereo not given) | i |
| O=C(Nc1cccc(-c2nc3cc(Cl)cc(Cl)c3o2)c1)c1cccnc1 | i |
| CC1(C)CC(C(=O)Nc2ccc(Br)cc2)CCO1 (stereo not given) | i |
| O=C(Nc1cccc2cccnc12)c1cccc(Cl)c1 | i |
| O=C(Nc1ccccc1C(=O)N1CCCC1)c1ccc(Cl)cc1 | 4% |
| CCN1CCN(CCCCOc2cc(C)cc(C)c2C)CC1 | i |
| Cc1cccc(OCc2nc(-c3ccncc3)no2)c1 | i |
| O=C(NC(=S)Nc1ccc(Cc2ccncc2)cc1)c1cccc(Cl)c1Cl | i |
| CC(=O)c1ccc(NC(=O)CSCCO)cc1 | i |
| CCc1ccccc1OCC(=O)Nc1nc2ccccc2s1 | 2% |
| C=CCSc1nnc(-c2nnc(SCC=C)n2CC)n1CC | i |
| CC(=O)c1ccccc1OC(=O)c1ccc(Br)o1 | i |
| CC(=O)c1cccc(NC(=O)C2CCCN(S(C)(=O)=O)C2)c1 (stereo not given) | i |
| C=CCn1c(SCC(=O)c2ccc3c(c2)OCCO3)nc2sc(C)c(-c3ccccc3)c2c1=O | i |
| COc1ccccc1-c1cc(C(=O)Nc2ccccn2)c2ccccc2n1 | i |
| COc1ccc(-c2noc(-c3ccccc3OC)n2)cc1OC | i |
| CCc1c(C)sc(NC(=O)OC)c1C(=O)N1CCOCC1 | 0% |
| Cc1ccc(-c2cc(C(F)F)n3ncc(C(=O)N4CCN(Cc5ccccc5)CC4)c3n2)cc1 | i |

Other results follow.
| Compound | Mtb H37Rv |
| --- | --- |
| COc1ccc(CCNC(=O)C2(c3ccc(OC)c(OC)c3)CCOCC2)cc1OC | i |
| O=C(NCc1ccco1)c1cc2ccc(O)cc2oc1=O | i |
| O=C(CSc1n[nH]c(-c2cc(Br)ccc2O)n1)NCCc1ccccc1 | 4% |
| Cc1ccc(SC(C)C(=O)NCCC2=CCCCC2)cc1 (stereo not given) | 1% |
| NS(=O)(=O)c1ccc(NC(=S)N2CCN(c3ccccc3)CC2)cc1 | i |
| CCC(C)c1ccc(C(C)NC(=O)CCC(=O)O)cc1 (stereo not given) | i |
| Cc1cc(C)cc(C(=O)Nc2cccc([N+](=O)[O-])c2)c1 | i |
| CCOC(=O)N1CCN(C(=O)C(Cl)(Cl)Cl)CC1 | i |
| COC(=O)c1ccccc1NC(=O)CN(c1ccccc1)S(=O)(=O)c1ccc(Cl)cc1 | 8% |
| Cc1cccc2c1NC(=O)C2(O)CC(=O)c1ccc(Br)s1 (stereo not given) | i |
| CC(Oc1cccc(Cl)c1)C(=O)Nc1ccc(Cl)cc1Cl (stereo not given) | i |
| CCc1nnc(NS(=O)(=O)c2ccc(Nc3cc(C#N)c(C#N)cc3[N+](=O)[O-])cc2)s1 | 18% |
| O=C(CCSc1nnnn1-c1ccccc1)Nc1ccc(Cl)cc1 | i |
| CC1=Nc2c(ccc3cccnc23)C1(C)C | 0.19µg/mL* |
| CCc1cc2c(=O)c(-c3ccc(Cl)cc3)coc2cc1OCC(=O)OC | i |
| CC(Sc1nc(-c2cccnc2)ccc1C#N)C(=O)O (stereo not given) | i |
| CCC(C(=O)Nc1ccc(Cl)c(Cl)c1)c1ccccc1 (stereo not given) | i |
| CCc1cc(=O)oc2cc(OC(=O)c3ccco3)c(Cl)cc12 | i |
| O=C(NCCC1COc2ccccc2O1)C(=O)NCC1COc2ccccc2O1 (stereo not given) | 1% |
| Cc1cc(C)c(NC(=O)CSc2nnc(NC(=O)c3ccccc3Cl)s2)c(C)c1 | i |
| COc1cccc(OC)c1C(=O)Nc1ccc(N2CCOCC2)c(Cl)c1 | i |
| Cc1ccc(CNc2nc3ccccc3n2CCN2CCCCC2)cc1 | i |
| CC(C(=O)N1CCc2ccccc21)N1C(=O)c2ccccc2C1=O (stereo not given) | i |
| CC1=CN2CC(O)CN=C2C=C1 (stereo not given) | 0% |
| Cc1ccc(C(C)C)c(OCC(=O)Nc2ccc3c4c(cccc24)CC3)c1 | i |

Other compounds follow:
| Compound | Mtb H37Rv |
| --- | --- |
| Nc1nc2c(c3c1c(=O)oc1ccc(Br)cc13)CCCC2 | i |
| O=C(CCc1ccccc1)Nc1c(F)cccc1F | i |
| S=C(NCCN1CCOCC1)N1CCc2ccccc21 | i |
| CCC(C)c1ccc(NC(=O)c2ccc(OC(C)=O)cc2)cc1 (stereo not given) | i |
| S=C(NCCc1ccccc1)NCCc1ccccc1 | i |
| Cc1c(NC(=O)CSc2ccc(C(C)(C)C)cc2)c(=O)n(-c2ccccc2)n1C | i |
| CC(=O)NC(=S)Nc1ccc(Nc2ccccc2)cc1 | u |
| COc1ccc(-n2c(SCC(=O)N3CCOCC3)nnc2-c2ccc(Cl)cc2)cc1 | i |
| CCOC(=O)C1CCCN(C(=O)C2CC(c3cc(Cl)c(OC)cc3OC)=NO2)C1 (stereo not given) | u |
| CCOC(=O)c1sc(NC(=S)NC2CCN(Cc3ccccc3)CC2)c(C(=O)OCC)c1C | i |
| O=C(NC(=S)N1CCCCCC1)c1ccc([N+](=O)[O-])cc1 | 1.4µg/mL* |
| O=C(Nc1cccc(NC(=O)c2cc(Cl)ccc2Cl)c1)c1cc(Cl)ccc1Cl | 4% |
| Cc1nnc(SCC(=O)Nc2nc3ccccc3s2)s1 | i |
| Cc1ccc2nc(-c3ccc(NC(=O)CSc4ncn[nH]4)cc3)sc2c1 | 2% |
| O=S(=O)(Nc1nc2ccc(S(=O)(=O)N3CCCC3)cc2s1)c1ccc(F)cc1 | i |
| CC(C)C(NC(=O)/C=C/c1ccc2c(c1)OCO2)C(C)C | 16% |
| O=C(Nc1ccc(-c2nc3ccccc3s2)c(Cl)c1)c1cccc([N+](=O)[O-])c1 | i |
| O=C(CN1CCc2ccccc2C1)Nc1ccc(F)cc1F | 1% |
| CCOC(=O)c1c(NC(=S)NC(=O)c2ccc(OC)cc2)sc(C)c1C | 2% |
| O=C(CS(=O)c1ccc(S(=O)(=O)C(F)(F)F)cc1[N+](=O)[O-])OCc1ccccc1 (stereo not given) | i |
| COC(=O)c1c(NC(=O)C2CCCCC2)sc(C(=O)N2CCOCC2)c1C | i |
| O=C(NCc1ccc(N2CCCC2=O)cc1)Nc1ccccc1 | i |
| O=C(O)CCn1c(SC2CCCCC2)nc2ccccc21 | 1% |
| Cc1noc(NS(=O)(=O)c2ccc(NC(=O)CCCOc3ccc(Cl)cc3Cl)cc2)c1C | i |
| O=C(NCCCCCO)C(=O)Nc1ccc(Cl)cc1 | i |

(list continues)
| Compound | Mtb H37Rv |
| --- | --- |
| CCOc1ccc(N2CCN(CCNC(=S)NCc3ccccc3)CC2)cc1 | 5% |
| CCOC(=O)c1cccc(NC(=O)Nc2ccc(OCC)cc2)c1 | i |
| S=c1[nH]nc(-c2ccccc2Cl)n1-c1cccc(Cl)c1 | i |
| Cc1cccnc1NC(=O)c1c(O)c2ccccc2n(C)c1=O | i |
| Cc1ccc(N(C)C(=O)N2CCN(C(=O)N(C)c3ccc(C)cc3)CC2)cc1 | i |
| COc1ccc(C2(C(=O)Nc3ccc(C(=O)NCCc4ccc(OC)c(OC)c4)cc3)CCOCC2)cc1 | i |
| CCOC(=O)c1cc2ccc(OC(=O)COc3ccc(C)cc3)cc2oc1=O | 1% |
| COc1ccc(OC)c(NC(=O)CN(c2ccccc2)S(=O)(=O)c2ccc(Cl)cc2)c1 | i |
| CC(=O)c1ccc(NC(=O)c2ccc(CSc3ccccn3)cc2)cc1 | i |
